# LANA-H2A inh: blockers of LANA interaction with H2A/H2B – biochemical, FP readout, HTS, primary screen | inhibition, % (concentration not given with the values) | Protein LANA1 (Human herpesvirus 8 type P (isolate GK18)), Q9QR71 | cell-free LANA-H2A/H2B peptide, fluorescence polarization | 320,000 compounds, 0.6% hits; in the data active = inhibition mostly above about 10%, no sharp cut-off; inactive = mostly below about 6.7%;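 note: stock transfer was 7.5 nL into about 10 µL; 0% = median of vehicle wells and 100% = median of positive control wells; one replicate is shown; the record names a cut of 25% in any replicate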
# Target sequence (Q9QR71 whole entry, looked up): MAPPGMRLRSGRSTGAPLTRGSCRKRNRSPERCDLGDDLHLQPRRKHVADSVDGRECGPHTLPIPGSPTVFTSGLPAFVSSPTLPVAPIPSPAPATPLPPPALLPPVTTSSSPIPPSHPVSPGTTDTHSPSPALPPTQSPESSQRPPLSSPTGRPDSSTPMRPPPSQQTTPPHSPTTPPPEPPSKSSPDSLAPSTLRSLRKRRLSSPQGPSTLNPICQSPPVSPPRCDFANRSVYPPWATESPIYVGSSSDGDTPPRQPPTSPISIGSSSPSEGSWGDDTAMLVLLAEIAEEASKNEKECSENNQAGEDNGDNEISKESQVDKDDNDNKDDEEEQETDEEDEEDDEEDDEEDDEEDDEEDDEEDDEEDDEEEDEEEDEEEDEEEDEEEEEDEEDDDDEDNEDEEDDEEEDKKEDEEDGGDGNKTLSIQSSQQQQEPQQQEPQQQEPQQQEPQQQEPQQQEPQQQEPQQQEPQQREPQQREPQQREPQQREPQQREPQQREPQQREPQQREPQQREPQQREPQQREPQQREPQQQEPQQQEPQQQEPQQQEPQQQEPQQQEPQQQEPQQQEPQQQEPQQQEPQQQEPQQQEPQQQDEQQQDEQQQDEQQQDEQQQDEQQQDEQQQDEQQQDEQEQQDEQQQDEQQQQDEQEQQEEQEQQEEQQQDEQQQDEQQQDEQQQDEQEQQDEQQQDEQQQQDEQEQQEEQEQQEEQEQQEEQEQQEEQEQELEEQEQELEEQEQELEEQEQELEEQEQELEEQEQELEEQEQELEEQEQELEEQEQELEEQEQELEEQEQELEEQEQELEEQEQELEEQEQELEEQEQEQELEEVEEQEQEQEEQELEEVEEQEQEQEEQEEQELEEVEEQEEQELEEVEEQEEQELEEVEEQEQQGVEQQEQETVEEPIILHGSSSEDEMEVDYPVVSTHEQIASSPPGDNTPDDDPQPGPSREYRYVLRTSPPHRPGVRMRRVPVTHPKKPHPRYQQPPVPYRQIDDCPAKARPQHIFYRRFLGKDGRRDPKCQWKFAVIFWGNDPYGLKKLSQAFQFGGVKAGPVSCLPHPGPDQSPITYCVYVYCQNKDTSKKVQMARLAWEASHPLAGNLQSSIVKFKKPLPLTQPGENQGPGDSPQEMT
# T cruzi inh: inhibitors of intracellular T. cruzi growth, primary screen, luminescence, NIH3T3 host cells | 300,000 compounds, 1.4% hits | T. cruzi beta-gal in NIH3T3, 90 h | inhibition, % (concentration not given with the values);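 active = mean inhibition across valid replicates above about 55%, limit read from the data; inconclusive = mean below that limit but half or more replicates reach it; inactive = mean below it, under half of replicates reach it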;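 note: signal also drops with host cell toxicity which is not excluded here; 0% = plate median of DMSO wells and 100% = zero luminescence signal; higher percent means less beta-gal luminescence so fewer parasites; stock transfer was 50 nL into about 50 µL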
# ALR H2O2 inh: inhibitors of human ALR sulfhydryl oxidase, primary screen, biochemical, H2O2 detection, HRP-luminol luminescence, single point | 290,000 compounds, 3.8% hits | inhibition, % (test concentration not listed) | AID 485317, 2010 | purified ALR, DTT oxidation;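 active = mean and each replicate at 75% or more; inconclusive = only one of the two met; inactive = neither met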;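 note: stock transfer was 7.5 nL into about 7.5 µL; 0% = neutral wells and 100% = wells with inactivated enzyme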
# Beta2AR agonist: beta2AR agonists driving receptor internalization, primary screen, cell-based, FAP fluorogen, flow cytometry; Am2.2-beta2AR cells; reference of the scale not given here; 340,000 compounds, 0.43% hits; response, % (test concentration not listed);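 active = response above a set limit, near 3 SD of response in nonfluorescent compounds, cut at about 42% in these data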;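 note: stock transfer was 100 nL into about 11 µL; a reference agonist was the positive control; negative values mostly stem from fluorescent compounds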
# Calb FLC: C. albicans growth inhibition with fluconazole, primary screen, CaCi-2 strain, Alamar Blue fluorescence; C. albicans CaCi-2 (fluconazole-resistant clinical isolate) + fluconazole, 48 h; growth inhibition, % (no concentration beside the values); 300,000 compounds, 0.57% hits; AID 1979, 2009;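 active = most replicates above 75%; inconclusive = exactly half above 75%; inactive = most below 75%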;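 note: all wells also contain fluconazole at 8 µg/ml as a sub-toxic cotreatment; 0% = median of DMSO wells and 100% = median of geldanamycin control wells; wells of about 8 µL received 7.5 nL stock; the first replicate is given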
# Beta cell apopt: inhibitors of cytokine-induced beta cell apoptosis, primary screen, luminescence; INS-1E cytokine-induced death, ATP luminescence, 48 h; percent of positive-control rescue, neutral wells zero; protection from apoptosis, % (concentration not given with the values); 300,000 compounds, 0.8% hits; AID 435005, 2010;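 active = all replicates at 75% or more, or half of them and the mean; inconclusive = half reach 75% but not the mean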;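 note: 0% = cytokine-treated negative control wells and 100% = positive control rescue; higher means more ATP so stronger rescue from cytokine killing; wells of about 40 µL received 100 nL stock; the first replicate is given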
# Bfl-1 A1 inh: caspase 3/7 activation in MEF A1-2A-BIM cells, primary screen, A1 inhibitor project, cell-based, luminescence, HTS | Caspase-Glo 3/7 luminescence, 3 h; percent of clofoctol response, vehicle zero | caspase activation, % (no concentration beside the values) | 330,000 compounds, 0.066% hits;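 active = over half of replicate activation scores above 10%, or exactly half above 10 with the replicate mean above 10; inconclusive = replicate mean below 10 yet half the replicates above 10; inactive = over half of replicates below 10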;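 note: wells of about 30 µL received 50 nL stock; many hits fall short of the cut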
# rRNA inh HTS: reduced GFP signal of wild-type E. coli, primary screen, bacterial rRNA inhibitor project, GFP/RFP fluorescence, OD600, single point | AID 720706, 2013 | 350,000 compounds, 1.6% hits | E. coli WT GFP vs humanized-ribosome RFP mutants, 24 h; stronger effect = lower value; DMSO median 0, no signal -100 | GFP signal change (wild-type ribosome), % (no concentration beside the values);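 active = significant combined selectivity score with lowered wild-type GFP, culture density cut under 30%, mutant RFP and density less affected; inactive = any of these conditions unmet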; note: one replicate is shown; some compounds called inactive have numbers as strong as hits
# rRNA inh HTS OD600: recorded beside rRNA inh HTS, whose call it bears; OD600 change, %; measured here: OD600 growth;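 optical density of the mix in the first replicate; 0 = DMSO median and -100 = no signal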
# rRNA inh HTS RFP: recorded beside rRNA inh HTS, whose call it bears; RFP signal change, %; measured here: RFP humanized mutant strains;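 first replicate; 0 = DMSO median and -100 = no signal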
# An asterisk follows results filed as active; ? = inconclusive; · = not tested or not shown. The list is partial. The share of hits here may be higher or lower than overall.
SMILES,LANA-H2A inh,T cruzi inh,ALR H2O2 inh,Beta2AR agonist,Calb FLC,Beta cell apopt,Bfl-1 A1 inh,rRNA inh HTS,rRNA inh HTS OD600,rRNA inh HTS RFP
Cc1ccc(N2CCN(C(=O)c3cc(C(=O)c4ccccc4C)c[nH]3)CC2)c(C)c1,-0.4,29,2,5,?,5,-0.2,4,3,2.4
COc1ccc(CN2CCN(C(=O)c3cccc4ccccc34)CC2)cc1OC,-10,-8,-4,-1,-2,·,-0.6,-1,-3,-1.8
CCOc1ccc(N(C)C(=O)CCc2nnc3ccc(N4CCC5(CC4)OCCO5)nn23)cc1,0.4,-11,-13,2,2,-1,1.0,-2,-5,-5.3
N#C/C(=C\c1cccs1)Sc1nc2ccccc2s1,0.4,28,-6,0,5,0,0.5,·,·,·
C=CCOc1cccc(C2C(C(=O)c3ccco3)=C(O)C(=O)N2Cc2cccnc2)c1 (stereo not drawn),4.6,-5,0,-9,-10,·,0.4,0,1,-4.1
O=C(CCc1nnc2n(CCc3ccccc3)c(=O)c3ccccc3n12)NCCCN1CCCCC1,4.5,8,-10,-12,11,2,-1.5,26,23,3.7
CCN(CC)C(=O)CN1C(=O)C2(OCC(C)(c3ccccc3)CO2)c2ccccc21 (stereo not drawn),-3.5,8,-3,14,-6,6,0.5,·,·,·
O=C(NCCOc1ccccc1)c1ccccc1Cl,1.8,-4,2,-6,-9,-5,-2.1,13,12,0.1
O=C(COC(=O)C1(c2ccc(F)cc2)CCCC1)NCc1ccco1,-0.3,-11,5,-1,-6,3,0.7,-9,-11,-0.7
Cc1c(CN2CCc3c([nH]c4ccccc34)C2C2CCCCC2)cnn1C (stereo not drawn),1.0,16,·,13,?,3,-0.2,15,5,2.7

# Two of these compounds in another layout.
Molecule	LANA-H2A inh	T cruzi inh	ALR H2O2 inh	Beta2AR agonist	Calb FLC	Beta cell apopt	Bfl-1 A1 inh	rRNA inh HTS	rRNA inh HTS OD600	rRNA inh HTS RFP
Cc1c(CN2CCc3c([nH]c4ccccc34)C2C2CCCCC2)cnn1C (stereo not drawn)	1.0	16	·	13	?	3	-0.2	15	5	2.7
O=C(NCCOc1ccccc1)c1ccccc1Cl	1.8	-4	2	-6	-9	-5	-2.1	13	12	0.1

# Next compounds:
SMILES,LANA-H2A inh,T cruzi inh,ALR H2O2 inh,Beta2AR agonist,Calb FLC,Beta cell apopt,Bfl-1 A1 inh,rRNA inh HTS,rRNA inh HTS OD600,rRNA inh HTS RFP
CCNC(=S)NC1CC2CCC(C1)N2Cc1ccccc1 (stereo not drawn),2.6,-11,1,-2,-5,-5,0.0,·,·,·
COc1cc(OC)nc(N/N=C(\c2ccccc2)c2ccncc2)n1,5.4,-8,-7,-4,?,-10,-0.8,1,-4,0.3
CC1CCCN(CCCNC(=O)C2CCCN(c3ncnc4c3nc3n4CCCCC3)C2)C1 (stereo not drawn),2.1,-1,-3,-11,-4,3,0.1,1,7,-3.0
Cc1ccc(NC2CCCN(C(=O)c3cccnc3)C2)cc1C (stereo not drawn),2.7,-2,93*,2,5,-7,0.2,12,10,-0.5
O=C(CCc1ccccc1)NC1(Cc2ccccc2)CCN(CCCc2ccccc2)C1=O (stereo not drawn),0.8,·,0,5,·,45,-1.3,-45,-68,-18
COc1ccccc1NC(=O)CCC(=O)OCc1ccc(Cl)cc1,-12,-6,-7,2,-6,1,0.2,19,13,2.8
O=C(O)C(NC(=O)c1ccccc1)=C(Cl)Cl,-1.1,-7,·,1,-12,-2,0.3,·,·,·
Cc1cc(/C=C2\SC(N)=NC2=O)c(C)n1-c1ccc(F)cc1,-6.0,0,-1,-3,-5,·,-0.2,-13,-21,-6.1
COc1ccc(C(=O)N2CCC3(CC2)NCCc2[nH]cnc23)cc1,4.7,13,·,1,0,-1,-1.1,15,13,3.5
COc1ccc(OCCN(C)CC(=O)Nc2ccccc2SC)cc1,1.2,16,-2,1,23,-7,0.4,-9,-22,1.9
CCOC(=O)c1cc(C)nc(S(C)(=O)=O)c1C#N,1.8,-1,15,1,-12,·,-0.4,12,7,-0.6
COC(=O)CC(NC(=O)CN1CCN(c2ccc(F)cc2)CC1)c1cccc(F)c1 (stereo not drawn),3.0,-5,·,-3,-3,-2,0.6,-2,4,2.2
CCN(/N=C/c1ccccc1)c1cc(=O)n(C)c(=O)[nH]1,6.2,-5,-9,-9,-4,-3,0.3,·,·,·
Cc1cc(N(C(=O)c2ccco2)C(C(=O)NC2CCCCC2)c2ccccc2)ccc1-n1cnnn1 (stereo not drawn),5.4,5,-20,-2,1,2,0.3,·,·,·
Cc1ccc(S(=O)(=O)N2CCN(C(=O)c3cc(=O)c4ccccc4o3)CC2)cc1,-4.7,-10,·,0,3,-11,-0.1,-6,5,0.8
O=C(Oc1ccc(N(C(=O)c2ccncc2)S(=O)(=O)c2ccc(F)cc2)cc1)c1ccncc1,0.9,-12,37,3,7,-1,0.4,-2,-8,2.6
CCc1ccccc1NC(=O)Cn1nnc(C(=O)NCc2cccc(OC)c2)c1N,2.4,-2,-15,-4,9,·,-0.7,8,21,-0.1
COC(=O)c1ccc(CSC(=N)N)o1,3.4,-26,·,2,-28,-18,-1.7,23,20,2.0
COc1ccc(N2CCN(C(=O)COC(=O)c3cccc(OC)c3O)CC2)cc1,-3.9,·,8,15,·,2,-0.5,3,-4,5.9
O=C(CCSc1nc(-c2ccco2)cc(C(F)(F)F)n1)NCCc1ccccc1,8.3,24,10,4,-10,-7,1.2,·,·,·
O=C(COc1ccccc1Cl)N1CCN(c2ccc([N+](=O)[O-])c(N3CCCCC3)c2)CC1,-4.1,35,24,-9,4,5,0.3,0,1,2.3
O=C(COc1ccc(Br)cc1)NCCNC(=O)c1ccncc1,-8.7,-4,5,1,-11,3,0.1,8,5,1.6
O=C(NCCS(=O)(=O)N1CCCC1)c1ccccc1,4.4,2,-9,6,14,0,0.0,3,7,-0.7
O=C(CSc1nnc2c(n1)[nH]c1ccccc12)NCc1ccco1,-5.8,-11,-1,-6,21,-3,-0.2,-1,-4,-5.4
COc1ccc([C@@H]2[C@@H]3C(=O)N(C(C)(C)C)C(=O)[C@@H]3[C@]3(Cc4ccc(Cl)cc4)C(=O)N(c4cccc(Br)c4)C(=O)N23)cc1,4.6,45,-4,-8,10,6,0.4,11,13,-1.1
O=C(O)CC(c1ccccc1)n1cnnn1 (stereo not drawn),-2.5,9,1,4,-2,-4,-0.8,·,·,·
Cc1ccsc1/C=N/NC(=O)c1cccs1,-0.5,1,-1,-6,-13,3,-3.7,·,·,·
Cc1cc(C)c2nc(N3CCC(C(=O)NCC4CCCO4)CC3)sc2c1 (stereo not drawn),3.5,-4,-5,-2,-3,2,-1.9,-11,-21,1.3
CCCn1cnc2c(sc3nc4c(cc32)CSC(C)(C)C4)c1=O,-3.9,14,-4,-13,54,-5,0.8,·,·,·
Cc1cccc(Nc2sc(C(=O)c3cc4cc(Cl)ccc4o3)c(N)c2C#N)c1,0.4,1,13,12,-2,6,-1.4,9,13,-0.6

# The closing six compounds of the part above lead into the next.
SMILES,LANA-H2A inh,T cruzi inh,ALR H2O2 inh,Beta2AR agonist,Calb FLC,Beta cell apopt,Bfl-1 A1 inh,rRNA inh HTS,rRNA inh HTS OD600,rRNA inh HTS RFP
COc1ccc([C@@H]2[C@@H]3C(=O)N(C(C)(C)C)C(=O)[C@@H]3[C@]3(Cc4ccc(Cl)cc4)C(=O)N(c4cccc(Br)c4)C(=O)N23)cc1,4.6,45,-4,-8,10,6,0.4,11,13,-1.1
O=C(O)CC(c1ccccc1)n1cnnn1 (stereo not drawn),-2.5,9,1,4,-2,-4,-0.8,·,·,·
Cc1ccsc1/C=N/NC(=O)c1cccs1,-0.5,1,-1,-6,-13,3,-3.7,·,·,·
Cc1cc(C)c2nc(N3CCC(C(=O)NCC4CCCO4)CC3)sc2c1 (stereo not drawn),3.5,-4,-5,-2,-3,2,-1.9,-11,-21,1.3
CCCn1cnc2c(sc3nc4c(cc32)CSC(C)(C)C4)c1=O,-3.9,14,-4,-13,54,-5,0.8,·,·,·
Cc1cccc(Nc2sc(C(=O)c3cc4cc(Cl)ccc4o3)c(N)c2C#N)c1,0.4,1,13,12,-2,6,-1.4,9,13,-0.6
CC(=O)Nc1ccc(NS(=O)(=O)c2cc(Cl)sc2Cl)cc1,-3.2,2,·,4,-10,·,0.8,-2,1,1.2
Cc1ccc(CN2CCN(CC(=O)NCc3ccccc3)CC2)cc1,-0.3,-22,-5,4,1,·,1.5,-1,7,-3.5
CCCOc1ccc(C2=CC(=O)C[C@H](c3ccc(OC)cc3)C2)cc1,3.8,·,-5,-5,·,4,0.7,5,9,-15
COc1ccc(CCn2c(N)cc(=O)[nH]c2=O)cc1OC,-1.4,-12,1,-8,?,-8,0.3,10,10,0.1
COC(C(=O)NC1CC1)c1ccccc1 (stereo not drawn),2.7,-10,-4,0,?,-6,-0.5,22,12,-4.1
CCc1ccccc1NC(=O)CSc1nnc([C@H](CCSC)NC(=O)OC(C)(C)C)o1,-6.4,3,-4,3,1,-11,-0.9,·,·,·
c1ccc(-c2[nH]ncc2CN2CCc3ccccc3C2)cc1,-1.7,11,-6,-8,6,-2,0.2,-3,-6,0.4
O=C1CN(C(=O)N[C@@H](Cc2ccccc2)C(=O)N[C@H](C(=O)O)c2ccccc2)c2ccccc2N1,0.9,-2,-1,0,-10,-6,0.9,-1,3,-2.6
COC(=O)NNC(=O)C1CCC(C(=O)NNC(=O)OC)CC1 (stereo not drawn),-0.8,-8,-2,3,-5,-6,-0.1,·,·,·
COc1ccc(CC(=O)OCC(=O)c2c[nH]c3ccccc23)cc1,-10,·,-7,4,·,-3,-0.6,-23,-29,0.1
CCCCOc1ccc(C(=O)CCN2CCOCC2)cc1,-0.2,56*,98*,-2,13,3,0.6,11,-1,-0.6
Cc1cc(NC(=O)COC(=O)c2ccccc2[N+](=O)[O-])no1,4.1,-6,-5,0,3,5,-1.2,6,4,-2.4
Cc1[nH]c(=O)[nH]c(=O)c1/C=N/NC(=O)[C@@H](N)CC(C)C,2.0,-2,0,-9,-1,-1,-0.3,10,-2,-6.4
CCOc1ccc(OCC)c(NC(=O)C2CCN(S(=O)(=O)c3c(C)[nH]c(=O)[nH]c3=O)CC2)c1,-5.6,1,-22,-2,3,-3,2.1,17,18,5.6

# High-throughput results deposited in PubChem by several laboratories.
